INS promoter inh – inhibitors of insulin promoter-driven GFP, primary screen, imaging, TRM-6 cells (human fetal islet line), eGFP reporter, cell count; reporter expression induced with tamoxifen; inhibition, % at 2 µM; 0.9% of 130,000 active;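 active = inhibition above the mean plus 3 SD, with well images judged a real hit on visual review, cut at about 60% in these data, passing the limit was not always enough; inconclusive = inhibition over the cutoff but images rejected on review; inactive = inhibition not above the cutoff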
RGS16-Gao HTS – modulators of RGS16 binding to Galphao, primary screen, biochemical, human proteins, multiplexed bead flow cytometry | bead-based flow cytometry RGS16-Galphao binding, fluorescence; actives lie on both sides | 0.38% of 220,000 active | binding response (% of control), % at 10 µM | AID 1441, 2008;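 active = below 25% or above 175%, edge rows of some plates excepted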;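 also: Galphao activated by GDP with aluminum fluoride before binding; 100% = wells without compound and 0% = beads without RGS; some results beyond the cut were filed as inactive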
Target sequence (O15492 whole entry, looked up): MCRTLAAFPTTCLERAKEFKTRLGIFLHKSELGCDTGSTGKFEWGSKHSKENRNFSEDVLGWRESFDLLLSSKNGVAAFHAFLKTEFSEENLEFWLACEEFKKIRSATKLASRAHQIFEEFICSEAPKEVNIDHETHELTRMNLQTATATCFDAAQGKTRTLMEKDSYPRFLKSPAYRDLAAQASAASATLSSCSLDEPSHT
Target sequence (P09471 whole entry, looked up): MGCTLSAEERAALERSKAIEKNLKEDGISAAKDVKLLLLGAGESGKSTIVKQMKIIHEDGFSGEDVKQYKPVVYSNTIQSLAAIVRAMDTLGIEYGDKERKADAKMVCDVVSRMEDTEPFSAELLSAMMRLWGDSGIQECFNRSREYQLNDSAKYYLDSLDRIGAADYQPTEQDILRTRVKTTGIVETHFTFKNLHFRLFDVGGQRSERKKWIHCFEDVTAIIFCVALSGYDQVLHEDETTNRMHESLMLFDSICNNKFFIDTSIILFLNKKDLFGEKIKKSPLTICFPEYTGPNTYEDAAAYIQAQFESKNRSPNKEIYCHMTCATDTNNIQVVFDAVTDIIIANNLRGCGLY
GALR2 agonist – GALR2 receptor agonists, primary screen, cell-based; GALR2-expressing cells, agonist activation read-out; activation, %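 (tested at 5 µM)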; 0.48% of 140,000 active; AID 803, 2007; Galanin receptor type 2 (Homo sapiens), O43603;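 active = above mean plus 3 SD of all compounds, about 5% in these data, not always enough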;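 also: 0% = vehicle buffer wells and 100% = reference agonist at full effect; tested in CHO reporter cells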
Target sequence (O43603 whole entry, looked up): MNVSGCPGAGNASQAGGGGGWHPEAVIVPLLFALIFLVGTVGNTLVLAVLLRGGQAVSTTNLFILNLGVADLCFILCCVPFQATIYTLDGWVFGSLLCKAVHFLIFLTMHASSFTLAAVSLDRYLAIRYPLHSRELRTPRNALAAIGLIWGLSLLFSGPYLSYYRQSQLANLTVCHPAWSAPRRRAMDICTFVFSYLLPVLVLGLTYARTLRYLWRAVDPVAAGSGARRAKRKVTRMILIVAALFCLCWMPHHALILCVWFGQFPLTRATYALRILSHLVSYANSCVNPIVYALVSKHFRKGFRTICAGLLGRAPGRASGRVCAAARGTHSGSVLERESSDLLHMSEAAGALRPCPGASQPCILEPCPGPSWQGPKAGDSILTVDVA
PKD1 kinase inh – inhibitors of human PKD1 kinase, biochemical, fluorescence polarization; Serine/threonine-protein kinase D1 (Homo sapiens), Q15139; PKD1 kinase fluorescence polarization assay; inhibition, %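 (about 10 µM by stock and volumes)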; 0.056% of 200,000 active; AID 797, 2007;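 active = inhibition of 50% or more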;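 also: controls were vehicle for no effect and a reference inhibitor for full effect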
HSV replic up – enhancers of HSV replication in host cells, fold increase, host cell viability. HSV replication augmentation in cells. maximum fold increase. 0.005% of 220,000 active. AID 1956, 2009;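 active = peak rise of 1.5-fold or more in the series; inconclusive = self-fluorescent or not available for retest; tested in PC3 cells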;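 also: first round at 10 µM; read as green reporter fluorescence; hits show the peak of a series up to 25 µM; 1 = signal of infected wells without compound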
INS promoter inh cell count – also measured in INS promoter inh; calls as there; normalized cell count, %; measured here: cell count, toxicity; reference of the scale not given here;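 cells exposed to compound for 48 h; stained nuclei by imaging scaled within each plate; lower means fewer cells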
HSV replic up primary fold – further read-out of HSV replic up, marked with its call; fold increase; compound at 10 µM; measured here: primary screen fold increase 10 uM; tested in PC3 cells;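 GFP signal in the first replicate; 1 = infected wells without compound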
* marks the source's active call; other numbers are inactive results; i = inactive; ? = inconclusive; . = not tested or not shown; & = joins results of further samples.

The line under a structure holds: INS promoter inh	INS promoter inh cell count	RGS16-Gao HTS	GALR2 agonist	PKD1 kinase inh	HSV replic up	HSV replic up primary fold
- CC(=O)Nc1ccccc1N(C)S(=O)(=O)c1ccc(C)cc1
  .	.	102	-2.0	3	i	0.99
- Cc1ccc(Cl)cc1NC(=O)CCN1C(=O)C2C3CCC(C3)C2C1=O (stereo unspecified)
  .	.	101	.	-2	i	0.95
- COc1cccc(NC(=O)C(C)SCc2ccccc2)c1 (stereo unspecified)
  -5	46	82	.	2	i	1
- O=C(COC(=O)/C=C/c1ccccc1[N+](=O)[O-])NC1CCS(=O)(=O)C1 (stereo unspecified)
  38	99	112	.	1	i	1.1
- C=CCOc1ccc(-c2nc3c(c(=O)[nH]c(=O)n3CCCC)n2C)cc1OC
  .	.	102	.	0	i	0.68
- COc1cccc(/C=C(/C(=O)OCC(=O)NC2CCCCCCC2)c2ccccc2)c1
  .	.	60	-1.0	-10	i	1.1
- Cc1ccccc1NC(=O)CCC(=O)N/N=C/c1c[nH]c2ccccc12
  15	71	110	.	2	i	1
- CC(Oc1ccc(Cl)cc1Cl)C(=O)NN=C1CCN(C)CC1 (stereo unspecified)
  10	102	55	-0.6	-2	i	1.1
- CCCCCCC(=O)Nc1ccc(C(=O)N2CCCC2)cc1
  37	113	101	-2.1	-10	i	0.88
- Cc1ccc(C(=O)N/C(=C/c2ccco2)C(=O)NC2CCS(=O)(=O)C2)cc1 (stereo unspecified)
  33	114	90	.	-2	i	0.94
- Cc1cc(Br)cc(C)c1NC(=S)NC(=O)CC(C)C
  4	134	86	-1.0	-10	i	0.76
- Cc1ccc(S(=O)(=O)N(C)CC(=O)N2CCN(c3ccccn3)CC2)cc1
  60	130	103	-4.8	-7	i	0.95
- CC(C)NC(=O)c1ccc(OC2CSC2)cc1
  -51	132	101	-1.9	-4	i	0.87
- COc1ccc(CN(C)CCc2ccccn2)c(OC)c1OC
  .	.	111	-3.8	0	i	1
- Cc1nc2ccc(C(=O)O)cc2[nH]1
  -10	135	102	-3.6	0	i	0.91

Whole records from above. Screens in order: INS promoter inh | INS promoter inh cell count | RGS16-Gao HTS | GALR2 agonist | PKD1 kinase inh | HSV replic up | HSV replic up primary fold
Results for C=CCOc1ccc(-c2nc3c(c(=O)[nH]c(=O)n3CCCC)n2C)cc1OC → . | . | 102 | . | 0 | i | 0.68
Results for COc1cccc(/C=C(/C(=O)OCC(=O)NC2CCCCCCC2)c2ccccc2)c1 → . | . | 60 | -1.0 | -10 | i | 1.1
Results for CC(Oc1ccc(Cl)cc1Cl)C(=O)NN=C1CCN(C)CC1 (stereo unspecified) → 10 | 102 | 55 | -0.6 | -2 | i | 1.1
Results for Cc1cc(Br)cc(C)c1NC(=S)NC(=O)CC(C)C → 4 | 134 | 86 | -1.0 | -10 | i | 0.76

An excerpt of these results, tab-delimited:
SMILES	INS promoter inh	INS promoter inh cell count	RGS16-Gao HTS	GALR2 agonist	PKD1 kinase inh	HSV replic up	HSV replic up primary fold
C=CCOc1ccc(-c2nc3c(c(=O)[nH]c(=O)n3CCCC)n2C)cc1OC	.	.	102	.	0	i	0.68
COc1cccc(/C=C(/C(=O)OCC(=O)NC2CCCCCCC2)c2ccccc2)c1	.	.	60	-1.0	-10	i	1.1

(next part)
The line under a structure holds: INS promoter inh	INS promoter inh cell count	RGS16-Gao HTS	GALR2 agonist	PKD1 kinase inh	HSV replic up	HSV replic up primary fold
- O=C(Nc1nnc(-c2ccccc2)o1)C1CCCCC1
  .	.	103	-0.8	-5	i	1.1
- NNC(=O)CCc1c[nH]c2ccccc12
  46	88	105	-3.1	4	i	1
- CCN1C(=O)CC(N2CCN(c3ccc(C(=O)c4ccncc4)cc3)CC2)C1=O (stereo unspecified)
  70*	134*	98	-1.3	-4	i	0.92
- O=c1oc2ccc(Cl)cc2cc1-c1ccccc1
  -27	94	98	0.9	6	i	0.93
- CCC1Oc2ccc(C)cc2N(CC(=O)NCC2COc3ccccc3O2)C1=O (stereo unspecified)
  .	.	105	-1.8	-15	i	0.92
- N#Cc1nc(N2CCOCC2)nc(N2CCOCC2)n1
  .	.	102	-0.5	-13	i	0.96
- COc1ccc2oc(=O)cc(C)c2c1
  .	.	89	-1.2	-8	.	.
- O=C(c1ccc(C(=O)N2CCCCCC2)cc1)N1CCCCCC1
  56	117	104	-1.3	0	i	0.87
- O=C(O)C1C2C=CC3(CN(c4cccc(C(F)(F)F)c4)C(=O)C13)O2 (stereo unspecified)
  36	58	102	-2.7	2	i	1
- C=CCN1C(=O)/C(=C/c2ccccc2)S/C1=N/c1nccs1
  -3	159	106	0.8	-7	i	1.1
- COCCNC(=O)CSCc1c(F)cccc1Cl
  -42	105	117	-1.8	-2	i	0.85
- CS(=O)(=O)Nc1ccc(C(=O)NCCSCc2c(F)cccc2Cl)cc1
  .	.	98	.	-3	i	1
- FC(F)(F)C12CC(c3ccccc3)=NCCN1CCN2 (stereo unspecified)
  10	84	254	-2.0	-5	i	1.3
- Cc1ccc(Cc2cnc(NC(=O)c3ccco3)s2)cc1
  46	112	99	-2.0	2	i	0.84
- COc1ccc(/C=C2\C(=O)NC(=S)N2C(=O)c2ccc(C)cc2)cc1
  -19	98	101	-1.2	-10	i	1.2

An excerpt taken from the entries so far, for reference:
The line under a structure holds: INS promoter inh	INS promoter inh cell count	RGS16-Gao HTS	GALR2 agonist	PKD1 kinase inh	HSV replic up	HSV replic up primary fold
- O=C(Nc1nnc(-c2ccccc2)o1)C1CCCCC1
  .	.	103	-0.8	-5	i	1.1
- NNC(=O)CCc1c[nH]c2ccccc12
  46	88	105	-3.1	4	i	1
- CCN1C(=O)CC(N2CCN(c3ccc(C(=O)c4ccncc4)cc3)CC2)C1=O (stereo unspecified)
  70*	134*	98	-1.3	-4	i	0.92

Carrying on.
The line under a structure holds: INS promoter inh	INS promoter inh cell count	RGS16-Gao HTS	GALR2 agonist	PKD1 kinase inh	HSV replic up	HSV replic up primary fold
- Cc1cnc(C)c(N2CCC(C(=O)NC(C)c3cccs3)CC2)n1 (stereo unspecified)
  36	60	94	-1.3	-11	i	1
- COc1cccc(CNc2cc(CSc3ccc(Cl)cc3)nc(C)n2)c1
  -50	100	104	0.9	2	i	0.89
- CCC(=O)Nc1ccc(C(=O)CSc2nnc(-c3ccc(NS(C)(=O)=O)cc3)n2C)cc1OC
  -3	132	103	-0.6	-2	i	0.96
- COc1ccc2[nH]cc(S(=O)(=O)c3ccc(C(C)C)cc3)c(=O)c2c1
  29	131	115	.	-3	i	0.91
- O=C(CCl)N=c1sccn1Cc1ccc(Cl)cc1Cl
  i	1	104	.	-7	i	0.59
- Cc1cc(NCc2ccccc2)nc(N2CCOCC2)n1
  -21	128	104	-0.6	-10	i	0.99
- N=C(c1cccc([N+](=O)[O-])c1)N1CCCCC1
  -19	90	108	.	-1	i	0.97
- Cc1nn(-c2ccccc2)c(=S)n1-c1ccccc1
  43	90	96	0.2	-9	i	1
- COC(=O)C1C(O)=C(C=Nc2cccc3ccccc23)C(=O)CC1(C)C (stereo unspecified)
  .	.	104	.	.	i	0.9
- Cc1nn(Cc2ccccc2)c(C)c1NC(=O)c1cccs1
  -50	61	82	-0.4	-16	i	0.97
- Cc1ccccc1Nc1nc(CSc2nnnn2-c2ccccc2)cs1
  69*	64*	104	-2.2	-3	i	1.1
- COCCNS(=O)(=O)c1ccc2c(c1)oc(=O)c1cc(S(=O)(=O)NCCOC)ccc12
  0	59	88	-2.9	-4	.	.
- CCO[C@@H]1OC(C(=O)N2CCOCC2)=C[C@H](C2CCCCC2)[C@H]1CCCO
  .	.	103	.	-6	i	0.83
- CCn1c(C)c(C2=CCN(S(=O)(=O)c3ccc(C)cc3)CC2)c2ccccc21
  15	71	103	-2.3	-11	?	.
- CC(=O)c1ccc(Oc2ncnc3sccc23)c(CN2CCOCC2)c1
  15	100	98	-0.9	-7	i	1

The list goes on:
The line under a structure holds: INS promoter inh	INS promoter inh cell count	RGS16-Gao HTS	GALR2 agonist	PKD1 kinase inh	HSV replic up	HSV replic up primary fold
- O=C(C1CC1)N(CCN(Cc1ccccc1)C(=O)C1CC1)Cc1ccccc1
  -250	73	101	-3.3	0	.	.
- Fc1ccc(F)c(CN2CCN(c3ncccn3)CC2)c1
  -4	125	105	-1.5	-6	i	0.83
- Cc1ccc(C)c(S(=O)(=O)N2CCN(CC(=O)Nc3ccc4c(c3)CCC4)CC2)c1
  -54	95	44	-1.4	-2	i	0.91
- O=C(OC1CCN(c2ncc(C(F)(F)F)cc2Cl)CC1)c1cccc(C(F)(F)F)c1
  .	.	103	-1.5	-15	i	0.8
- CCC1CCCCN1C(=O)CSc1nnc(-c2ccc(OC)cc2)o1 (stereo unspecified)
  .	.	107	-1.4	2	i	1.3
- CCOC(=O)C1=C(CSc2nc3ccccc3s2)NC(=O)NC1c1ccc(OC)cc1 (stereo unspecified)
  .	.	100	-1.8	5	i	0.72
- Fc1ccccc1NC(=S)N1CCN(c2ccccn2)CC1
  42	110	99	-2.0	-3	i	0.88
- Nc1ccc(NC(=O)Nc2ccc(N)cc2)cc1
  .	.	133	.	.	i	0.92
- C=CCn1c(SCC(=O)Nc2ccccc2)nnc1-c1cccc(S(=O)(=O)N2CCOCC2)c1
  .	.	101	-0.6	1	i	1
- Cn1c(SCC(=O)Nc2cccnc2)nnc1-c1ccccc1F
  58	144	110	.	-5	i	1.1
- O=C(CN1CC(=O)Oc2ccccc21)OCC(=O)c1ccc(F)cc1
  -214	19	89	.	4	i	1.1
- CCC(C)Cn1c(C(C)C)nc2ccccc21 (stereo unspecified)
  .	.	101	.	-5	i	1
- CCOC(=O)c1cn[nH]c1NC(=S)Nc1ccc(OC)cc1
  .	.	105	.	.	i	1
- CCN(CC)C(=O)Cn1cnc2sc(C(=O)Nc3cc(OC)c(OC)c(OC)c3)c(C)c2c1=O
  -37	140	98	-0.2	1	i	0.96
- O=C(NCc1ccncc1)Nc1cccc([N+](=O)[O-])c1
  .	.	99	.	-3	i	1.2

(further entries)
The line under a structure holds: INS promoter inh	INS promoter inh cell count	RGS16-Gao HTS	GALR2 agonist	PKD1 kinase inh	HSV replic up	HSV replic up primary fold
- O=C(Nc1cnn(Cc2ccc(F)cc2)c1)c1cc(-c2cccs2)on1
  .	.	73	-0.1	0	i	0.99
- CCC(NC(=S)NCc1ccccc1)C(=O)O (stereo unspecified)
  -42	105	100	-2.8	-2	i	0.95
- COc1ccc(Br)cc1S(=O)(=O)n1ccnc1C
  19	130	106	0.7	1	i	1
- CCOc1c2ccc(C(=O)NCc3ccc4c(c3)OCO4)cc2nn1C
  45	144	104	0.2	-8	i	0.94
- Cc1n[nH]c(C)c1S(=O)(=O)N1CCCC(C(=O)NC2CCCc3ccccc32)C1 (stereo unspecified)
  .	.	100	-2.0	3	i	0.98
- COc1ccc(/C=N/NC(=O)c2nn(-c3ccccc3)c(=O)c3c(N)scc23)cc1
  .	.	.	-0.8	7	i	1.1
- Cc1cccc(C)c1NC(=S)N1CCCN(Cc2ccc(F)cc2)C1
  -40	107	105	.	-8	i	0.92
- COc1cccc(N/N=C(\C#N)S(=O)(=O)C(C)(C)C)c1
  27	140	107	.	-2	i	0.93
- COc1ccc(CNC(=O)CCCc2ccccc2)cc1
  17	139	106	0.6	4	i	0.96
- CC1(C)Cc2c(sc3c2c(=N)n(Cc2ccco2)c(=O)n3CC(=O)Nc2cccc(Cl)c2)CO1
  25	96	98	-0.1	-6	i	1
- CCCCn1nc2cc(C(=O)NCc3ccco3)ccc2c1OCC
  .	.	100	-3.0	-9	i	0.77
- CS(=O)(=O)N1N=C(c2cccs2)CC1c1ccccc1F (stereo unspecified)
  .	.	95	.	-3	i	0.92
- O=C(NC1CCC(C(=O)O)CC1)OCc1ccccc1 (stereo unspecified)
  0&-6	118&53	96&109	-2.2&-1.3	8&6	i	1.1&0.98
- CCOC(=O)c1c(C)n(C)c2cc(-c3cccc(C(F)(F)F)c3)c(O)cc12
  38	119	105	-0.4	-5	i	0.92
- CCOc1ccc(S(=O)(=O)NCCCN2CCCC2=O)cc1
  .	.	93	.	-3	i	0.98
- O=C(c1ccc(S(=O)(=O)N2CCOCC2)cc1)N(c1ccccc1)C1C=CS(=O)(=O)C1 (stereo unspecified)
  21	91	97	-1.1	0	i	1
- CSCCC(NC(=O)/C(=C\c1ccc(Cl)cc1)NC(=O)c1ccccc1)C(=O)O (stereo unspecified)
  -12	94	104	.	-4	i	0.96

Screens (PubChem)
